YB-1 expression = inhibitors of YB-1 gene expression, primary screen, cell-based, fluorescence | U2OS, qRT-PCR YB-1 vs CDIP delta delta Cp, 16 h; hits give high values; zero = DMSO, each unit about twofold | delta delta Cp (YB-1 minus CDIP) (test concentration not listed) | hit rate 0.37% among 30,000 | AID 434959, 2010;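 active = delta delta Cp rounded down to an integer at or above 3, about 3 SD of DMSO wells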;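 also: higher means less YB-1 transcript or more CDIP transcript relative to DMSO; stock transfer was 100 nL into about 100 µL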
* = called active by the depositor. The list is partial, so the mix of outcomes need not match the whole.

No.	smiles	YB-1 expression
1	C[C@H]1CN([C@@H](C)CO)C(=O)CCCn2nncc2CO[C@@H]1CN(C)C(=O)OCc1ccccc1	-11
2	COc1ccc(/C=N/NC(=O)CCCCCC(=O)Nc2ccccc2O)cc1OC	-0.18
3	O=C(NO)c1ccc(C(=O)N/N=C/c2ccc(O)cc2Br)cc1	-0.46
4	C[C@H](CO)N1C[C@H](C)[C@H](CN(C)S(=O)(=O)c2cn(C)cn2)Oc2ncc(-c3ccc(F)cc3)cc2C1=O	0.15
5	C=CC[C@]12N=C(c3ccc(OCCCO)cc3)O[C@H]1c1ccccc1N(CCS(=O)(=O)c1ccccc1)C2=O	0.14
6	O=C(CCCCCC(=O)Nc1ccccc1O)N/N=C/c1ccc(O)c(F)c1	-0.062
7	O=C(NO)c1cccc(C(=O)N/N=C/c2c(O)cc(O)cc2O)c1	-0.15
8	COC(=O)CCCCCCC(=O)N/N=C/c1ccccc1OCCO	0.43
9	C[C@@H]1CN([C@@H](C)CO)C(=O)CCCn2nncc2CO[C@@H]1CN(C)S(=O)(=O)c1ccc(C#N)cc1	0.41
10	C[C@H](CO)N1C[C@H](C)[C@H](CN(C)C(=O)NC2CCCC2)Oc2ncc(-c3cccc(C(F)(F)F)c3)cc2C1=O	-0.28
11	NC(=O)NCC#Cc1ccc2c(c1)[C@]1(C(=O)N2)[C@H](C(=O)N2CCCCCCC2)[C@H]2C(=O)O[C@H](c3ccccc3)[C@H](c3ccccc3)N2[C@@H]1c1ccc(O)cc1	-0.12
12	CC(C)NC(=O)[C@@]1(Cc2ccccc2I)c2ccccc2C(=O)N(Cc2ccccc2C(F)(F)F)[C@H]1c1ccc(CO)cc1	0.38
13	O=S(=O)(NC[C@@H]1CCCN(Cc2cccc(OCCO)c2)C1)c1ccc(Cl)cc1	-0.41
14	Cc1ccc(S(=O)(=O)N(C)C[C@H]2OCc3cnnn3CCCC(=O)N([C@H](C)CO)C[C@@H]2C)cc1	-0.022
15	C[C@@H]1CN([C@H](C)CO)C(=O)CCCn2cc(nn2)CO[C@@H]1CN(C)S(=O)(=O)c1ccc(Oc2ccccc2)cc1	-0.091
16	C[C@@H]1CN([C@@H](C)CO)C(=O)CCCn2cc(nn2)CO[C@@H]1CN(C)C(=O)Nc1ccnc(N2CCOCC2)c1	-0.28
17	C[C@H](CO)N1C[C@H](C)[C@@H](CN(C)S(=O)(=O)c2ccc(C#N)cc2)OCc2cnnn2CCCC1=O	0.37
18	Cc1ccc(O)c(/C=N/NC(=O)CCCCC(=O)NO)c1	-0.17
19	C[C@H]1CN([C@@H](C)CO)C(=O)CCCn2nncc2CO[C@H]1CN(C)C(=O)Nc1ccc2c(c1)OCO2	-0.066
20	C[C@@H]1CN([C@H](C)CO)C(=O)CCCn2cc(nn2)CO[C@H]1CN(C)CC1CCCCC1	-0.093

(listing goes on)
No.	smiles	YB-1 expression
21	C[C@H](CO)N1C[C@H](C)[C@H](CN(C)Cc2ccncc2)Oc2ncc(-c3ccccc3)cc2C1=O	-0.044
22	COc1ccc(S(=O)(=O)N(C)C[C@H]2OCc3cnnn3CCCC(=O)N([C@H](C)CO)C[C@@H]2C)cc1	0.062
23	Cc1noc(C)c1S(=O)(=O)N(C)C[C@H]1OCc2cn(nn2)CCCC(=O)N([C@H](C)CO)C[C@@H]1C	0.077
24	O=C(NCc1ccc(F)cc1)[C@@H]1C[C@@H]2C(=O)N3CCC[C@H]3C(=O)N2[C@@H]1c1cccc(OCCO)c1	0.24
25	CN(CCO)c1ccc(/C=N/NC(=O)CCCCCCC(=O)Nc2ccccc2O)cc1	0.049
26	C[C@H](CO)N1C[C@H](C)[C@H](CN(C)C(=O)Nc2ccc3c(c2)OCO3)Oc2ncc(-c3cc4ccccc4o3)cc2C1=O	-0.0039
27	C[C@H](CO)N1C[C@H](C)[C@H](CN(C)Cc2ccccc2)Oc2ncc(C#CCN(C)C)cc2C1=O	0.0015
28	COc1ccc(/C=N/NC(=O)c2ccccn2)c(O)c1	0.0031
29	C[C@H](CO)N1C[C@H](C)[C@H](CN(C)C)Oc2ncc(-c3cccc(F)c3)cc2C1=O	-0.18
30	C[C@H](CO)N1C[C@H](C)[C@H](CN(C)S(C)(=O)=O)Oc2ncc(-c3cc4ccccc4o3)cc2C1=O	-0.22
31	CC(C)(C)OC(=O)NC1(/C=N/NC(=O)CCCCCC(=O)O)CCCC1	-0.64
32	O=C(O)CCCCCCC(=O)N/N=C/c1cc(Br)ccc1O	0.094
33	COc1cc2c(cc1OC)CN(C(=O)[C@@H]1[C@H]3C(=O)O[C@H](c4ccccc4)[C@H](c4ccccc4)N3[C@H](c3ccc(OCCO)cc3)[C@@]13C(=O)Nc1ccc(C#CCNC(N)=O)cc13)CC2	-0.097
34	C=CCOc1ccccc1/C=N/NC(=O)c1cccc(C(=O)NO)c1	0.19
35	COc1ccc(NC(=O)N(C)C[C@@H]2Oc3ncc(-c4cccc(F)c4)cc3C(=O)N([C@H](C)CO)C[C@@H]2C)cc1	0.47
36	COc1ccc([Si](C)(C)[C@H]2[C@H](CCn3cc([C@H](O)c4ccccc4)nn3)O[C@@]3(C(=O)N(Cc4cccc(N5CCC5=O)c4)c4ccccc43)[C@@H]2C)cc1	0.037
37	C[C@@H]1CN([C@H](C)CO)C(=O)CCCn2cc(nn2)CO[C@@H]1CN(C)Cc1ccc(Cl)c(Cl)c1	-0.2
38	CC(C)OC(=O)N(C)C[C@@H]1OCc2cnnn2CCCC(=O)N([C@@H](C)CO)C[C@H]1C	0.2
39	COc1ccc(O)c(/C=N/NC(=O)CCCCCC(=O)Nc2ccccc2O)c1	-0.099
40	COc1ccc(CN(C)C[C@@H]2OCc3cnnn3CCCC(=O)N([C@@H](C)CO)C[C@@H]2C)cc1	-0.018

Next part.
No.	smiles	YB-1 expression
41	O=C(N/N=C/c1ccc2c(c1)CCO2)c1ccccc1O	0.29
42	NC(=O)[C@@H]1[C@H]2C(=O)O[C@H](c3ccccc3)[C@H](c3ccccc3)N2[C@H](c2ccccc2OCCO)[C@@]12C(=O)Nc1ccccc12	-0.32
43	COc1ccc([Si](C)(C)[C@@H]2[C@@H](CCn3cc([C@H](O)c4ccccc4)nn3)O[C@]3(C(=O)N(Cc4cccc(N5CCC5=O)c4)c4ccccc43)[C@H]2C)cc1	-0.58
44	O=C(CCCCC(=O)N/N=C/c1coc2ccccc2c1=O)NO	0.36
45	COc1cccc(S(=O)(=O)N(C)C[C@@H]2Oc3ncc(C#Cc4ccccc4)cc3C(=O)N([C@H](C)CO)C[C@@H]2C)c1	0.041
46	COCCOC(=O)N1C(=O)[C@@]2(c3cc(C#Cc4ccc(OC)cc4)ccc31)[C@H](C(=O)N1CCCCCCC1)[C@H]1C(=O)O[C@H](c3ccccc3)[C@H](c3ccccc3)N1[C@@H]2c1ccc(O)cc1	0.43
47	C=CCN1C(=O)[C@]2(O[C@H](CCn3cc(CCO)nn3)[C@@H]([Si](C)(C)c3ccc(OC)cc3)[C@@H]2C)c2ccccc21	0.49
48	O=C(O)CCCCCC(=O)N/N=C/c1cccc(Br)c1	-0.45
49	C[C@@H]1CN([C@H](C)CO)C(=O)CCCn2nncc2CO[C@H]1CN(C)C(=O)Nc1cccc(F)c1	0.41
50	C[C@H](CO)N1C[C@H](C)[C@H](CN(C)C)Oc2ncc(-c3cc4ccccc4o3)cc2C1=O	0.21
51	C/C=C/[C@H](CCn1cc([C@H](O)c2ccccc2)nn1)[Si](C)(C)c1ccc(OC)cc1	0.028
52	C[C@H](CO)N1C[C@H](C)[C@@H](CN(C)Cc2ccccc2)OCc2cn(nn2)CCCC1=O	0.14
53	O=C1O[C@@H](c2ccccc2)[C@@H](c2ccccc2)N2[C@@H](c3ccccc3OCCO)[C@]3(C(=O)Nc4ccc(C#CCCO)cc43)[C@@H](C(=O)N3CCN(c4ncccn4)CC3)[C@H]12	-0.47
54	C[C@H](CO)N1C[C@H](C)[C@H](CN(C)C(=O)Nc2ccccc2)Oc2ncc(-c3cc4ccccc4o3)cc2C1=O	-0.13
55	C[C@H](CO)N1C[C@H](C)[C@H](CN(C)C(=O)Nc2ccc3c(c2)OCO3)Oc2ncc(-c3ccc(F)cc3)cc2C1=O	-0.039
56	C[C@@H]1CN([C@H](C)CO)C(=O)CCCn2nncc2CO[C@H]1CN(C)S(=O)(=O)c1ccc(C#N)cc1	-0.14
57	O=C(CCCCCCC(=O)Nc1ccccc1O)NN=C1CCCCCCC1	-0.14
58	Cc1cccc(S(=O)(=O)N(C)C[C@H]2OCc3cn(nn3)CCCC(=O)N([C@H](C)CO)C[C@@H]2C)c1	-0.16
59	C[C@@H]1CN([C@H](C)CO)C(=O)CCCn2nncc2CO[C@H]1CN(C)Cc1cccnc1	0.27
60	C=CCNC(=O)[C@@H]1[C@H]2C(=O)O[C@H](c3ccccc3)[C@H](c3ccccc3)N2[C@H](c2ccc(O)cc2)[C@@]12C(=O)Nc1ccc(C#CCC(C(=O)OC)C(=O)OC)cc12	0.21

(next part)
No.	smiles	YB-1 expression
61	Cc1ccc(CN(C)C[C@@H]2OCc3cnnn3CCCC(=O)N([C@H](C)CO)C[C@@H]2C)cc1	-0.096
62	COc1ccc([Si](C)(C)[C@@H]2[C@@H](CCn3cc(CCO)nn3)O[C@]3(C(=O)N(Cc4cccc(N5CCOC5=O)c4)c4ccccc43)[C@H]2C)cc1	-0.089
63	C[C@@H]1CN([C@@H](C)CO)C(=O)CCCn2cc(nn2)CO[C@@H]1CN(C)C(=O)c1ccc2ccn(C)c2c1	0.27
64	O=C1N(CCS(=O)(=O)c2ccccc2)c2ccccc2[C@@H]2OC(c3ccc(OCCCO)cc3)=N[C@]12CCS(=O)(=O)c1ccccc1	-0.095
65	C[C@H]1CN([C@@H](C)CO)C(=O)CCCn2cc(nn2)CO[C@@H]1CN(C)C(=O)c1ccncc1	-0.25
66	C[C@H]1CN([C@@H](C)CO)C(=O)CCCn2nncc2CO[C@H]1CN(C)Cc1ccc2c(c1)OCO2	-0.34
67	C[C@H]1CN([C@@H](C)CO)C(=O)CCCn2nncc2CO[C@@H]1CN(C)S(C)(=O)=O	-0.46
68	C[C@@H]1CN([C@H](C)CO)C(=O)CCCn2nncc2CO[C@@H]1CN(C)CC1CC1	0.031
69	Cc1ccc(S(=O)(=O)N(C)C[C@@H]2Oc3ncc(C#Cc4ccccc4)cc3C(=O)N([C@H](C)CO)C[C@@H]2C)cc1	-0.018
70	COc1ccc([Si](C)(C)[C@H]2[C@H](CCO)O[C@@]3(C(=O)N(Cc4ccccc4)c4ccc(N5CCCCC5=O)cc43)[C@@H]2C)cc1	0.24
71	C[C@H]1CN([C@@H](C)CO)C(=O)CCCn2nncc2CO[C@@H]1CN(C)Cc1ccccc1C(F)(F)F	-0.43
72	C[C@@H]1CN([C@@H](C)CO)C(=O)CCCn2nncc2CO[C@H]1CN(C)Cc1ccc(-c2ccccc2)cc1	-0.092
73	COCCOC(=O)N1C(=O)[C@@]2(c3cc(C#CC4=CCCCC4)ccc31)[C@H](c1ccc(OCCO)cc1)N1[C@H](c3ccccc3)[C@H](c3ccccc3)OC(=O)[C@H]1[C@@H]2C(=O)N1CCc2cc(OC)c(OC)cc2C1	-0.021
74	O=C1N(CCS(=O)(=O)c2ccccc2)Cc2ccccc2[C@@H]2OC(c3ccc(OCCCO)cc3)=N[C@]12Cc1ccccc1	-0.33
75	COc1ccc(S(=O)(=O)N(C)C[C@@H]2Oc3ncc(/C=C/c4ccccc4)cc3C(=O)N([C@H](C)CO)C[C@@H]2C)cc1	-0.027
76	CCOC(=O)N(C)C[C@@H]1OCc2cnnn2CCCC(=O)N([C@H](C)CO)C[C@H]1C	0.62
77	C[C@@H]1CN([C@H](C)CO)C(=O)CCCn2nncc2CO[C@@H]1CN(C)Cc1cccc(O)c1	-0.51
78	CCOC(=O)N(C)C[C@@H]1OCc2cnnn2CCCC(=O)N([C@@H](C)CO)C[C@H]1C	0.16
79	O=C(CCCCCCC(=O)Nc1ccccc1O)N/N=C/[C@H](O)[C@@H](O)[C@H](O)CO	-0.32
80	O=C(CCCCCCC(=O)Nc1ccccc1O)N/N=C/c1cc(O)ccc1Br	0.15

(more compounds)
No.	smiles	YB-1 expression
81	O=C(CCCCCCC(=O)Nc1ccccc1O)N/N=C/c1ccc([N+](=O)[O-])c(O)c1	-0.25
82	C=CC[C@H](OC(=O)Nc1ccc(SC)cc1)c1ccc(OCCO)cc1	-0.0086
83	O=C(N=NC=C1C=CN(O)C=C1)c1ccccc1O	-0.24
84	C[C@H]1CN([C@@H](C)CO)C(=O)CCCn2cc(nn2)CO[C@@H]1CN(C)Cc1cccnc1	-0.0014
85	COc1ccc(/C=N/NC(=O)c2cccc(C(=O)NO)c2)cc1Br	-0.77
86	C[C@H](CO)N1C[C@H](C)[C@H](CN(C)C(=O)Nc2ccc(C(C)(C)C)cc2)OCc2cn(nn2)CCCC1=O	0.26
87	O=C(CCCCCCC(=O)Nc1ccccc1O)N/N=C/c1cc(O)ccc1[N+](=O)[O-]	0.16
88	O=C(NO)c1cccc(C(=O)N/N=C/Cc2ccccc2)c1	-0.17
89	NCc1ccccc1	-4.2
90	Cc1nnc(Sc2ccc(/C=N/NC(=O)CCCCC(=O)NO)o2)n1C	-0.067
